RanGTP-Imp inh – inhibitors of RanGTP-importin-beta interaction, primary screen, biochemical, FRET, CFP-Ran, YFP-importin-beta, homogeneous. inhibition, % (no concentration beside the values). cell-free CFP-Ran/YFP-importin-beta FRET ratio. AID 2216. actives 1.1% (n = 300,000);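 active means most replicates above 15%; inconclusive means exactly half above 15%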;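 further: 0% = DMSO wells and 100% = Ran loaded with GDP instead of GTP; wells of about 40 µL received 100 nL stock; the first replicate is given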
LANA-H2B inh – blocks KSHV LANA binding to histone H2A/H2B; Q9QR71; cell-free LANA-H2A/H2B peptide, fluorescence polarization; inhibition, % (no concentration beside the values); actives 0.6% (n = 320,000); AID 2629; in the data active means inhibition mostly above about 10%, no sharp cut-off; inactive means mostly below about 6.7%;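 further: stock transfer was 7.5 nL into about 10 µL; 0% = median of vehicle wells and 100% = median of positive control wells; one replicate is shown; the record names a cut of 25% in any replicate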
AF4-AF9 inh – MLL-AF4/AF9 protein interaction inhibition | P42568 | AlphaScreen, biotin-AF4 peptide binding to FLAG-AF9 | inhibition, % at 10 µM | actives 0.47% (n = 350,000);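 active means every replicate reaching a set inhibition limit, whatever the replicate mean, cut at about 25% in these data; inconclusive means mean inhibition reaches that limit but some replicates miss it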;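 further: 0% = plate neutral control median and 100% = total signal loss; the record names both 10 and 1 µM as test concentration; the first replicate is given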
Target sequence (P42568 whole entry, looked up): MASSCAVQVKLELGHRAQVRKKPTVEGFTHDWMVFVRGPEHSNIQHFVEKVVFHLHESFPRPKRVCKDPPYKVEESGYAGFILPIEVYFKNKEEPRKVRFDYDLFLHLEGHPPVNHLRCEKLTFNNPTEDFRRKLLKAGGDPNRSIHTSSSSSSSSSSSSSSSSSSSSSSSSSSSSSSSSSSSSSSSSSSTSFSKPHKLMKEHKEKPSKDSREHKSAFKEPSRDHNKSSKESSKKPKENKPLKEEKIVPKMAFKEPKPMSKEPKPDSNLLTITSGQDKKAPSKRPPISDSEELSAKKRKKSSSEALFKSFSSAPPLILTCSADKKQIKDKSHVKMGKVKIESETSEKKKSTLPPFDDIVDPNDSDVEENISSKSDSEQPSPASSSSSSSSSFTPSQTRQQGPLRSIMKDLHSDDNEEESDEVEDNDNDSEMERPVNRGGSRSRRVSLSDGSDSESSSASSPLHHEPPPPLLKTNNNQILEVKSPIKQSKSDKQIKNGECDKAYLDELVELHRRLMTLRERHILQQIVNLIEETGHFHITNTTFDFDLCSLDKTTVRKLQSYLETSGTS
Beta apoptosis – blocks beta cell apoptosis. INS-1E cytokine-induced death, ATP luminescence, 48 h; percent of positive-control rescue, neutral wells zero. protection from apoptosis, % (test concentration not listed). actives 0.8% (n = 300,000). AID 435005;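 active means all replicates at 75% or more, or half of them and the mean; inconclusive means half reach 75% but not the mean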;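 further: 0% = cytokine-treated negative control wells and 100% = positive control rescue; higher means more ATP so stronger rescue from cytokine killing; wells of about 40 µL received 100 nL stock; the first replicate is given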
Calb FLC – affects C. albicans growth with fluconazole | C. albicans CaCi-2 (fluconazole-resistant clinical isolate) + fluconazole, Alamar Blue growth, 48 h | growth inhibition, % (test concentration not listed) | actives 0.57% (n = 300,000) | AID 1979;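 active means most replicates above 75%; inconclusive means exactly half above 75%; inactive means most below 75%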;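 further: all wells also contain fluconazole at 8 µg/ml as a sub-toxic cotreatment; 0% = median of DMSO wells and 100% = median of geldanamycin control wells; wells of about 8 µL received 7.5 nL stock; the first replicate is given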
T cruzi inh – T. cruzi replication inhibition; T. cruzi beta-gal in NIH3T3, luminescence, 90 h; inhibition, % (test concentration not listed); actives 1.4% (n = 300,000); AID 1885;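 active means mean inhibition across valid replicates above about 55%, limit read from the data; inconclusive means mean below that limit but half or more replicates reach it; inactive means mean below it, under half of replicates reach it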;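 further: signal also drops with host cell toxicity which is not excluded here; 0% = plate median of DMSO wells and 100% = zero luminescence signal; higher percent means less beta-gal luminescence so fewer parasites; stock transfer was 50 nL into about 50 µL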
Bfl-1 A1 inh – inhibitors of the anti-apoptotic protein A1, read as caspase activation; AID 2462; actives 0.066% (n = 330,000); MEF A1-2A-BIM cells, Caspase-Glo 3/7 luminescence, 3 h; percent of clofoctol response, vehicle zero; caspase activation, % (no concentration beside the values);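 active means over half of replicate activation scores above 10%, or exactly half above 10 with the replicate mean above 10; inconclusive means replicate mean below 10 yet half the replicates above 10; inactive means over half of replicates below 10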;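 further: wells of about 30 µL received 50 nL stock; many hits fall short of the cut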
Vif TR-FRET – inhibitors of Vif binding to APOBEC3G peptide, primary screen, biochemical, TR-FRET, GST-Vif 1-94, biotin-A3G peptide, dose response retest (AID 1117319). TR-FRET GST-Vif / biotin-A3G peptide binding; higher % means a stronger effect; test concentration not given here; strong numbers were not always called active. inhibition, %, or IC50 in µM where a hit was titrated. actives 0.57% (n = 260,000);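 active means above the screen mean plus three standard deviations and confirmed in dose response; inconclusive means results disagree or hit not tested in dose response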;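 further: Vif residues 1-94 fused to GST binding biotinylated APOBEC3G peptide 110-148; 0% = full assay without inhibitor and 100% = GST in place of GST-Vif; retest series ran down from 100 µM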
Numbers without * were called inactive; ? = inconclusive; · = not tested or not shown.

SMILES	RanGTP-Imp inh	LANA-H2B inh	AF4-AF9 inh	Beta apoptosis	Calb FLC	T cruzi inh	Bfl-1 A1 inh	Vif TR-FRET
CCOC(=O)N1CCC(N2CCCC(C(=O)c3cc(F)ccc3OC)C2)CC1 (stereo not given)	-1.2	-3.5	-0.7	8	-13	59*	0.0	-1%
Cc1cccc(C2(c3cccc(C)c3)CC2C(=O)Nc2ccc([N+](=O)[O-])cc2O)c1 (stereo not given)	-3.9	3.0	·	·	39	5	-1.0	4%
CC1CCN(CCC(=O)N2CCCc3c2c(=O)oc2ccc(O)cc32)CC1	-0.8	2.4	·	0	4	-10	?	18%
COc1cccc(NC(=O)c2ccc(OC(F)(F)F)cc2)c1	4.7	-4.8	·	-5	-6	-22	-11	·
Cn1c(=O)c2sccc2n(Cc2ccc(Br)cc2)c1=O	3.6	-0.8	-1.3	·	5	9	-0.1	-23%
COc1ccc(S(=O)(=O)Nc2ccccc2C(=O)N2CCOCC2)cc1Br	0.8	-1.3	-8.9	-6	6	4	-0.4	0%
S=C1NC2(CCCCC2)NN1c1ccccc1	7.3	-3.2	5.1	-2	78*	6	0.4	24%
O=C(O)C1CC=CCC1C(=O)NCc1ccc(Cl)c(Cl)c1 (stereo not given)	1.0	3.3	-1.4	-2	6	-4	1.8	·
CCOc1ccccc1C(=O)NC1CCN(CC(=O)Nc2cc(OC)ccc2OC)CC1	7.1	-7.0	1.6	·	3	8	0.0	·
O=C(CNC(=O)c1ccco1)NCC(=O)OCc1ccc(C(=O)Oc2ccc(Cl)cc2)cc1	1.2	0.8	·	-8	?	-13	0.1	23%
COC(=O)c1sc(NC(=S)NC(=O)c2ccc(C)cc2)nc1C	23	-6.1	0.7	-3	-11	-18	-0.2	·
O=C(CSc1nnc(CCCN2C(=O)c3cccc4cccc(c34)C2=O)n1-c1ccccc1)N1CCN(CCO)CC1	1.7	4.2	·	-8	-2	17	-0.5	-2%
CCO[C@H]1OC(C(=O)O)=C[C@@H](C2CCCCC2)[C@@H]1CCCO	-1.5	-4.1	-0.7	4	8	-17	0.1	-6%
Cc1cc(-c2cccs2)c2c(N)c(C(=O)c3ccc4c(c3)OCO4)sc2n1	-107	1.9	-19	-10	-4	3	0.1	·
O=C(NNc1ccc([N+](=O)[O-])cc1)c1ccccc1Cl	-1.3	-1.4	-0.6	-1	92*	-4	-0.5	-1%
C/C(=N\N=C(/N)SC1CC(=O)N(c2ccc(Br)cc2)C1=O)c1cccs1 (stereo not given)	-0.4	-0.7	4.9	-12	65	4	-0.2	9%
CNC(=O)C1CCC(=O)N1Cc1ccccc1Cl (stereo not given)	3.8	3.7	·	-10	-7	-9	0.7	19%
O=S(=O)(NCC(c1cccnc1)N1CCN(c2ccccc2)CC1)c1cc(F)ccc1F (stereo not given)	-1.9	0.9	·	2	-4	76*	-0.1	6%
COc1ccc(F)cc1S(=O)(=O)NCc1ccccc1	-1.7	1.8	·	-3	-2	-4	-0.2	-2%
C#Cc1ccc([C@H]2C=C(C(=O)NCc3nc4ccccc4[nH]3)O[C@@H](OCc3ccc(CO)cc3)C2)cc1	1.1	-9.0	·	1	13	22	-0.7	·
O=C(Nc1ccccc1)Nc1ccc(Cl)nc1Cl	-1.2	-7.9	12	9	-12	-10	-0.1	·
N#C/C(=C(/O)C(Cl)(Cl)Cl)c1nc2ccccc2[nH]1	2.4	-0.1	-40	14	9	-16	-5.2	6%
O=c1ccc2cc(S(=O)(=O)NCCCc3ccccc3)ccc2[nH]1	4.4	-0.6	-0.6	-3	-12	-16	0.3	6%
CCOC(=O)C1=C(C)Nc2ncnn2C1/C=C/c1ccccc1 (stereo not given)	-0.5	-4.9	·	7	-1	6	0.8	-1%
COc1ccc(OC)c(NC(=O)CC2SC(=Nc3ccccc3)N(CCc3ccccn3)C2=O)c1 (stereo not given)	-5.1	-4.0	12	-5	6	6	0.4	·
CC(C)n1nnnc1-c1cccc(Cl)c1	2.9	-3.4	·	-2	23	5	-1.0	5%
COc1ccc(CCNC(=O)C(=O)NCC2CCCN2S(=O)(=O)c2ccccc2)cc1 (stereo not given)	4.1	0.6	-26	5	-8	-1	-0.1	2%
COc1ccc(NC(=S)N2CCC(c3ccc(C)cc3)C2)cc1 (stereo not given)	0.5	3.0	-0.9	-1	-26	-4	0.4	5%
Cc1cccc(C)c1N1CCN(C(=O)c2ccc3c(c2)OCO3)CC1	5.2	-2.9	1.7	-3	6	11	-1.3	·
C[C@@H](O)[C@@H]1NC(=O)c2cc([N+](=O)[O-])cc(I)c2NCC[C@@H](C(N)=O)NC(=O)CNC1=O	·	-3.6	-1.9	1	·	·	0.6	?
CC1CC(Nc2ccccc2)=NC1(C)C (stereo not given)	-2.2	-10	6.7	-4	-25	-6	0.0	25%
C[C@@H]1C=C[C@](Cc2ccccc2)(C(=O)NCC2CC2)N1C(=O)c1ccccc1	0.9	1.7	-2.5	-2	-12	-3	0.1	-4%
CCN1CCN(c2nc3ccccn3c(=O)c2/C=C(\C#N)S(=O)(=O)c2ccccc2)CC1	77*	2.5	5.5	-2	-3	2	0.2	-1%
COc1cccc(NC(=O)CN(C)C(=O)COc2ccc3ccccc3c2)c1	-0.7	0.7	·	-9	-6	-2	1.4	·
N#C/C(=C\Nc1ccc2c(c1)OCCO2)C(=O)NCc1ccco1	-1.5	2.1	2.2	-5	0	-9	-0.3	-5%
CC1CCCN(C(=O)CN2CCN(C(=O)c3ccco3)CC2)C1 (stereo not given)	0.1	-2.9	·	-1	-7	-2	-0.2	73%
NC(=S)Nn1c(-c2ccccc2)nc2ccccc2c1=O	1.9	-1.6	·	-7	31	-11	0.6	·
O=C(CSc1nnc(-c2ccc(F)cc2)n1CC1CCCO1)NCc1ccco1 (stereo not given)	3.0	-2.4	19	-12	-6	-5	-0.4	·
CCOC(=O)c1ccc(NC(=O)CC2SC(=NC)N(C)C2=O)cc1 (stereo not given)	3.0	1.2	·	1	-20	8	0.8	-3%
O=C(CSc1nnc(-c2ccc(Cl)cc2)n1Cc1ccco1)NCc1ccc2c(c1)OCO2	10	2.1	·	3	-13	32	1.6	?
CCOC(=O)C1CCN(c2c(NCc3ccc(C(=O)NCCOC)cc3)c(=O)c2=O)CC1	8.8	0.4	·	-2	-7	-23	0.3	-3%
O=C(c1ccccc1N(Cc1ccccc1)S(=O)(=O)c1ccccc1)N1CCOCC1	4.4	0.4	-1.7	-7	-1	3	0.4	·
COc1ccc(N(Cc2cc3ccccc3[nH]c2=O)S(=O)(=O)c2ccc(OC)cc2)cc1	6.8	3.8	-4.5	-5	4	-16	1.0	·
CCOc1ccccc1Nc1cc(C)c2cccc(C)c2n1	1.6	2.3	-1.5	10	6	27	-0.1	4%
O=C(COC(=O)c1cccc(Cl)c1Cl)NC1CCCC1	7.3	1.3	1.0	-9	0	-8	?	-2%
CN(C)CCCNc1ncnc2c1c(-c1ccccc1)cn2-c1ccccc1	1.0	-6.3	-4.1	2	-2	41	-0.1	·
O=C(Cn1c(NCCO)nc2ccccc21)NCC1CCCO1 (stereo not given)	6.3	3.9	-11	-4	-1	-9	0.6	-6%
CCn1ncc(CN2CCC(Oc3cc(C(=O)NC4CC4)ccc3OC)CC2)c1C	0.0	1.3	-0.7	-8	0	-3	2.1	·
CCC(=O)N1c2ccccc2NC2=C(C(=O)CC(c3ccco3)C2)C1c1ccco1 (stereo not given)	-0.7	-1.3	·	·	-4	10	1.2	16%
Cc1cccnc1NC(=O)c1ccc(S(=O)(=O)NCc2ccco2)cc1	3.5	-1.6	0.0	-1	1	0	-0.5	-1%
Cc1sc2nc(CSc3ccccc3)nc(NCCN(C)C)c2c1C	1.4	0.9	·	·	2	5	0.2	5%
COc1ccccc1N1CCN(C(=O)C(=O)N/N=C/c2cccc(O)c2)CC1	1.6	-1.2	·	-7	-6	-7	0.9	-2%
COc1ccc(-n2ccnc2SCC(=O)NC2CCCC2)c(OC)c1	-1.1	-2.6	-0.1	-7	2	-9	1.2	1%
CCN1CCN(c2nc(NCCO)c3ccccc3n2)CC1	-3.0	-0.6	4.1	-1	18	-8	1.2	-1%
Cc1ccnc(N2CCCC(C(=O)NC3CC3)C2)n1 (stereo not given)	2.0	-1.7	-0.2	1	13	2	-0.2	·
COC(=O)c1cc(OC)c(OC)cc1NC(=O)Nc1ccc(OC)cc1	-4.6	0.5	·	-4	7	-7	-0.4	26%
C=CCc1cc(Cl)ccc1OCCNCCCOC	0.5	0.9	·	-5	-31	35	-0.1	2%
CCNC(=S)N1CCN(CCN2C(=O)c3cccc4cccc(c34)C2=O)CC1	-0.6	-7.3	-5.6	3	16	11	0.6	·
Cc1cc([N+](=O)[O-])nn1CC(=O)Nc1ccc(Cc2ccncc2)cc1	-0.1	-2.6	0.6	-3	0	3	-0.4	-4%
COc1ccc(NC(=O)Nc2cccnc2)c(OC)c1	-1.5	5.2	0.3	3	25	-9	0.3	-5%
The results go on.
SMILES	RanGTP-Imp inh	LANA-H2B inh	AF4-AF9 inh	Beta apoptosis	Calb FLC	T cruzi inh	Bfl-1 A1 inh	Vif TR-FRET
COC(=O)c1ccc(NC(C)=O)o1	3.9	3.9	·	2	4	-10	0.2	-2%
O=S(=O)(c1cccc(Br)c1)N1CCN(S(=O)(=O)c2ccc3c(c2)OCCO3)CC1	·	-0.9	-6.2	-6	·	·	-1.4	·
O=C(/C(=C\c1ccccc1)c1nc2ccccc2[nH]1)c1ccc(Cl)cc1	-0.8	2.2	·	3	18	37	-0.7	14%
COc1ccc(O)c(C(=O)CC(=O)c2ccc(F)cc2)c1	?	-5.9	·	-4	1	0	-5.9	-7%
O=C(NCc1ccccc1F)C1CCCN1S(=O)(=O)c1ccc(F)cc1 (stereo not given)	6.8	0.8	1.6	0	-6	-5	0.5	·

Source: PubChem BioAssay (several laboratories)

Hits appear at their usual frequency. Share with any hit: about 4.3%.
